RE007 growth inh: qHTS Assay for Inhibitors of the HIV-1 protein Vpr. Potency, µM (series often up to 92.2 µM), inactives show top-dose activity change, negative = less growth. hit rate 0.21% among 360,000. AID 651644, 2012. S. pombe RE007 Vpr strain, BacTiter-Glo ATP luminescence, 24 h; control for the full effect not named in the record; active = well fitted falling curve with a large enough effect; inconclusive = small, poorly fitted or top-dose-only effect; inactive = no such curve, though single readings can be large or run the other way;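 note: % is set by controls: 0 for no effect and ±100 for the full control effect; nearly all actives have a fitted effect of over 50% in size; the assay follows cell death caused by Vpr and the record does not say whether a fall means rescue or toxicity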
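Fission yeast RE007 carrying one integrated HIV-1 vpr copy, seeded at OD 0.01 in PMG+AL medium with 23 nL pinned compound. Grown 24 h at 30 degrees; viability read by BacTiter-Glo luminescence after 5 min.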
NS1 inh: qHTS Assay for Inhibitors of Influenza NS1 Protein Function; Potency, µM (top dose mostly 46.1 µM), for inactives: at the highest dose activity, positive = more growth; AID 2326, 2010; S. cerevisiae slowed by influenza A NS1, growth recovery by OD600; hit rate 0.4% among 270,000; active means well fitted rising curve with a large enough effect; inconclusive means small, poorly fitted or top-dose-only effect; inactive means no such curve, though single readings can be large or run the other way; note: nearly all actives have a fitted effect of over 50% in size
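In this qHTS, NS1 from influenza A is expressed in budding yeast, where it slows growth. Cells are switched from glucose to 2% galactose medium (pH 6.0, -URA), treated with compound, and growth recovery is read at OD600.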
Cruzain inh Det: qHTS Assay for Promiscuous and Specific Inhibitors of Cruzain (with detergent). Cruzipain (Trypanosoma cruzi), P25779. purified cruzain, Z-FR-AMC fluorescence, 0.01% Triton. Potency, µM, without a hit: max response, negative = inhibition, most hits filed as inhibitors. hit rate 0.43% among 200,000. AID 1478, 2009;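 note: plate controls were neutral wells for no effect and buffer without enzyme for full effect; nearly all actives have a fitted effect of over 40% in size; top concentration of the series not given in the record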
Target sequence (P25779 123-467 limits assumed): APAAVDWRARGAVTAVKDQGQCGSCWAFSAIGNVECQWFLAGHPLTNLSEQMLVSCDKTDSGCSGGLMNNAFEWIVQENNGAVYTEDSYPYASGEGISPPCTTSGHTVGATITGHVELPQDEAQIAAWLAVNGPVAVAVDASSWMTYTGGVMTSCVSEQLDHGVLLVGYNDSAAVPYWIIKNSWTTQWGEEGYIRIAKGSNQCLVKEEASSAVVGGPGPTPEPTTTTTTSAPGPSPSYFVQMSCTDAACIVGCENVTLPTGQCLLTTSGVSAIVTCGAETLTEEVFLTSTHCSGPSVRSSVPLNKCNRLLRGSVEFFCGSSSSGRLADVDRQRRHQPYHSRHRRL
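Enzyme 1.5 nM, Z-FR-AMC 2 uM, NaOAc 100 mM pH 5.5, DTT 5 mM, Triton X-100 0.01%; 15 min RT compound preincubation; kinetic ex360/em450, 60 s delta.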
Marburg entry inh: qHTS for inhibitors of binding or entry into cells for Marburg Virus; Marburg virus pseudotyped entry inhibition, cell reporter; control for the full effect not named in the record; about a third of the inactives were read at about 46 µM; Potency, µM (series often up to 37.8 µM), for the others: at the top dose activity change, negative = inhibition, hits mostly inhibitors; hit rate 1.8% among 300,000; AID 540276, 2011; active = well fitted inhibition curve with a large enough effect; inconclusive = small, poorly fitted or top-dose-only effect, or effect the other way; inactive = flat fitted curve, though single readings scatter; tested in HEK293 cells; about a fifth of its hits are not listed in these tables; note: % is set by controls: 0 for no effect and ±100 for the full control effect; luciferase read-out
LASV entry inh: qHTS for Inhibitors of binding or entry into cells for Lassa Virus | Potency, µM (doses to about 37.9 µM), inactives show top-dose activity change, negative = inhibition, hits mostly inhibitors | Lassa virus pseudotype entry inhibition, cell reporter; control for the full effect not named in the record | hit rate 1.2% among 300,000 | AID 540256, 2011; active means well fitted inhibition curve with a large enough effect; inconclusive means small, poorly fitted or top-dose-only effect, or effect the other way; inactive means flat fitted curve, though single readings scatter; tested in HEK293 cells; note: % is set by controls: 0 for no effect and ±100 for the full control effect; nearly all actives have a fitted effect of over 50% in size; luciferase read-out
Cruzain inh noDet: qHTS Assay for Promiscuous and Specific Inhibitors of Cruzain (without detergent); Cruzipain (Trypanosoma cruzi), P25779; purified cruzain, Z-FR-AMC fluorescence, no detergent; Potency, µM, for inactives: max response, negative = inhibition, usual class: inhibitors; hit rate 2.3% among 200,000;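 note: plate controls were enzyme without inhibitor for no effect and buffer without enzyme for full effect; nearly all actives have a fitted effect of over 40% in size; top concentration of the series not given in the record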
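Purified cruzain at 1.5 nM, pre-incubated 15 min with compound at room temperature in 100 mM sodium acetate pH 5.5, 5 mM DTT, 0.00005% Triton X-100. Reaction started with 2 uM Z-FR-AMC; AMC fluorescence increase over 60 s gives rate.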
StopGo reporter: High Throughput Screening for Foot and Mouth Disease Virus Antivirals; human cells with a luciferase reporter of 2A StopGo recoding; control for the full effect not named in the record; Potency, µM (highest dose often 57.9 µM), for inactives: at the top dose signal change, negative = less light; hit rate 1.2% among 410,000; AID 1159524, 2015; active = well fitted falling curve with a large enough effect; inconclusive = small, poorly fitted or top-dose-only effect; inactive = no such curve, though single readings can be large or run the other way; tested in HEK293T cells; note: % is set by controls: 0 for no effect and ±100 for the full control effect; nearly all actives have a fitted effect of over 45% in size; luciferase light after 4 h
SARS PLP yeast: qHTS of Yeast-based Assay for SARS-CoV PLP; S. cerevisiae expressing SARS-CoV PLpro, growth rescue; control for the full effect not named in the record; Potency, µM (top dose mostly 32.9 µM), without a hit: at the top dose activity, positive = growth rescue; hit rate 0.19% among 330,000; active means well fitted rising curve with a large enough effect; inconclusive means small, poorly fitted or top-dose-only effect; inactive means no such curve, though single readings can be large or run the other way; note: 0% is about no effect; nearly all actives have a fitted effect of over 55% in size; growth read by luminescence after 48 h
* hit, by the source's call; ? = inconclusive; nt = not tested or not shown; & = joins results of further samples; [ ] = dose if it differs, or a comment. Unless noted, calls come from the whole dose curve; as a rule, active = well fitted curve in the direction sought with a large enough effect; inconclusive = small, poorly fitted or top-dose-only effect, or another doubt; inactive = no such curve, though single readings can be large; an effect the other way counts as inactive or inconclusive. Potency is the fitted concentration of half-maximal effect.

Letters: A = RE007 growth inh; B = NS1 inh; C = Cruzain inh Det; D = Marburg entry inh; E = LASV entry inh; F = Cruzain inh noDet; G = StopGo reporter; H = SARS PLP yeast
Cc1sc2nc3n(c(=O)c2c1C)CCCS3
  A: ?	B: -44%	C: -0.3%	D: 10%[46.1 µM]	E: 6%	F: 2%	G: 20%	H: -19%

Cn1c(=O)oc2cc(S(=O)(=O)NCCC(=O)NCc3ccc(F)cc3)ccc21
  A: -10%	B: -7%	C: -1.2%	D: 0%&-3%[46.1 µM]	E: 1%&20%[46.1 µM]	F: 1%	G: -3%&-2%	H: -9%

CS(=O)(=O)N(CC(=O)N1CCc2ccccc2C1)c1cccc([N+](=O)[O-])c1
  A: -3%	B: 18%	C: nt	D: 2%	E: -10%	F: nt	G: ?	H: -5%

Cc1cccc(C)c1NC1=NC(=S)N(c2ccc(N(C)C)cc2)C1(C)C
  A: 3%	B: 5%	C: -2.7%	D: -22%	E: -14%	F: -14%	G: -19%	H: -2%

O=C1c2cccnc2C(=O)N1C1CCCCC1
  A: -6%	B: -3%	C: 5.5%	D: 2%	E: 2%	F: -6%	G: -24%	H: 3%

COc1ccc(C2=NOC(Cn3nc(C(=O)O)cc3-c3ccccc3)C2)cc1 (stereo unspecified)
  A: 3%	B: 17%	C: nt	D: nt	E: nt	F: nt	G: -7%	H: -1%

CCN(CC)S(=O)(=O)c1cnccc1N1CCN(c2cccc(Cl)c2)CC1
  A: 6%	B: -49%	C: -6.5%	D: ?	E: ?	F: ?	G: 40µM*	H: -53%

O=C(NCCO)C(=O)c1c(-c2ccccc2)cc2ccccn12
  A: -11%	B: nt	C: nt	D: 4%[46.1 µM]	E: -2%[46.1 µM]	F: nt	G: -9%	H: 0%

Cc1ccc(-c2nc3ncccn3c2Nc2ccc3c(c2)OCCO3)o1
  A: 10%	B: -2%	C: -4.1%	D: ?	E: ?	F: 0%	G: 35%[activator]	H: 0%

CN1[C@H](CC(=O)c2ccccc2)CCC[C@H]1C[C@H](O)c1ccccc1
  A: nt	B: nt	C: 1.7%	D: -43%	E: nt	F: 3%	G: -15%	H: nt

Cc1ccc(-c2cn(-c3ccc(OC(F)F)cc3)c3[n+]2CCCCC3)cc1
  A: 1%	B: 5%	C: nt	D: -27%	E: ?	F: nt	G: -6%	H: 0%

CC1CN(Cc2nc3c(c(=O)n(C)c(=O)n3C)n2CCN2CCOCC2)CC(C)O1 (stereo unspecified)
  A: -8%	B: 9%	C: 1.8%	D: 5%&5%	E: -5%	F: 5%	G: 0%	H: 2%

O=C(O)Cc1ccc(NC(=O)c2cccc(NC(=O)c3ccco3)c2)cc1
  A: 1%	B: -1%	C: nt	D: -7%[46.1 µM]	E: 7%[46.1 µM]	F: nt	G: 2%	H: 1%

S=C(NCCc1c[nH]c2ccccc12)NC1CC1
  A: -26%	B: 3%	C: nt	D: 1%[46.1 µM]	E: -4%[46.1 µM]	F: nt	G: 10%	H: 0%

CC1(C)CCSC(/C=C/c2ccccc2)=N1
  A: -21%	B: -10%	C: nt	D: ?	E: ?	F: nt	G: 14µM*	H: -1%

CCCN1CCN(C(=O)c2c(Cl)cnn2C)CC1
  A: -10%	B: -9%	C: nt	D: 8%[46.1 µM]	E: -6%[46.1 µM]	F: nt	G: 2%	H: -7%

CCc1c(C)sc(NC(=O)c2cc3nc(-c4ccc(OC)cc4)cc(C(F)(F)F)n3n2)c1C(=O)OC
  A: nt	B: nt	C: -0.2%	D: nt	E: 1%[46.1 µM]	F: -2%	G: -9%	H: nt

COC(=O)c1ccc(NC(=S)NNC(=O)c2ccccc2)cc1
  A: -29%	B: -2%	C: nt	D: -4%[46.1 µM]	E: 7%	F: nt	G: 21%	H: 0%

O=[N+]([O-])c1ccccc1/C=C/C=N/Nc1nc(N2CCCCC2)nc(N2CCCCC2)n1
  A: 1%	B: 7%	C: nt	D: -10%[46.1 µM]	E: 0%	F: nt	G: -16%	H: 0%

Cc1cc(C)cc(NC(=O)c2ccc(N3C(=O)C4CCCCC4C3=O)cc2)c1 (stereo unspecified)
  A: -3%	B: -2%	C: nt	D: -23%	E: 5%	F: nt	G: ?	H: 0%

Cc1oc2cc(OC(=O)c3ccco3)ccc2c(=O)c1-c1nc2ccccc2n1C
  A: 2%	B: 22%	C: -14%	D: 13%	E: 1%	F: -12%	G: -12%	H: 18%

O=C(CC(c1ccco1)C1CCCCC1=O)c1ccccc1 (stereo unspecified)
  A: 7%	B: -2%	C: -9.8%	D: -5%	E: -3%	F: -24%	G: nt	H: -7%

Cc1ccc(C(=O)NC2CCC(C)CC2)o1 (stereo unspecified)
  A: -18%	B: nt	C: nt	D: ?	E: 10%	F: nt	G: 9%	H: 8%

Nc1ccc(Cl)c[n+]1Cc1cccc2cccnc12
  A: -1%	B: -2%	C: nt	D: nt	E: nt	F: nt	G: -10%	H: 2%

CCOC(=O)c1cc(-c2ccccc2)sc1NC(=S)Nc1cccc(C)n1
  A: -14%	B: -3%	C: -0.6%	D: -9%	E: 10%	F: ?	G: -1%	H: 3%

CCCCN1C(=O)/C(=C\c2ccco2)C(=O)N(CCc2ccccc2)C1=O
  A: -13%	B: 20%	C: ?	D: -10%	E: 4%	F: ?	G: ?	H: -2%

CCN(CC)C(=O)c1ccc(NC(=O)c2cccc(F)c2)cc1
  A: 4%	B: -12%	C: 3.6%	D: 4%	E: 11%	F: -3%	G: 50%[activator]	H: 1%

Grouped by structure, the entries above containing four or more nitrogen atoms (7)
Letters: A = RE007 growth inh; B = NS1 inh; C = Cruzain inh Det; D = Marburg entry inh; E = LASV entry inh; F = Cruzain inh noDet; G = StopGo reporter; H = SARS PLP yeast
Cc1cccc(C)c1NC1=NC(=S)N(c2ccc(N(C)C)cc2)C1(C)C
  A: 3%	B: 5%	C: -2.7%	D: -22%	E: -14%	F: -14%	G: -19%	H: -2%

CCN(CC)S(=O)(=O)c1cnccc1N1CCN(c2cccc(Cl)c2)CC1
  A: 6%	B: -49%	C: -6.5%	D: ?	E: ?	F: ?	G: 40µM*	H: -53%

Cc1ccc(-c2nc3ncccn3c2Nc2ccc3c(c2)OCCO3)o1
  A: 10%	B: -2%	C: -4.1%	D: ?	E: ?	F: 0%	G: 35%[activator]	H: 0%

CC1CN(Cc2nc3c(c(=O)n(C)c(=O)n3C)n2CCN2CCOCC2)CC(C)O1 (stereo unspecified)
  A: -8%	B: 9%	C: 1.8%	D: 5%&5%	E: -5%	F: 5%	G: 0%	H: 2%

CCCN1CCN(C(=O)c2c(Cl)cnn2C)CC1
  A: -10%	B: -9%	C: nt	D: 8%[46.1 µM]	E: -6%[46.1 µM]	F: nt	G: 2%	H: -7%

CCc1c(C)sc(NC(=O)c2cc3nc(-c4ccc(OC)cc4)cc(C(F)(F)F)n3n2)c1C(=O)OC
  A: nt	B: nt	C: -0.2%	D: nt	E: 1%[46.1 µM]	F: -2%	G: -9%	H: nt

O=[N+]([O-])c1ccccc1/C=C/C=N/Nc1nc(N2CCCCC2)nc(N2CCCCC2)n1
  A: 1%	B: 7%	C: nt	D: -10%[46.1 µM]	E: 0%	F: nt	G: -16%	H: 0%
